Cruzain inh Det – qHTS Assay for Promiscuous and Specific Inhibitors of Cruzain (with detergent); hit rate 0.43% among 200,000; purified cruzain, Z-FR-AMC fluorescence, 0.01% Triton; Potency, µM, for the others: max response, negative = inhibition, hits mostly inhibitors; Cruzipain (Trypanosoma cruzi), P25779;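 further: plate controls were neutral wells for no effect and buffer without enzyme for full effect; nearly all actives have a fitted effect of over 40% in size; top concentration of the series not given in the record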
Target sequence (P25779 123-467 limits assumed): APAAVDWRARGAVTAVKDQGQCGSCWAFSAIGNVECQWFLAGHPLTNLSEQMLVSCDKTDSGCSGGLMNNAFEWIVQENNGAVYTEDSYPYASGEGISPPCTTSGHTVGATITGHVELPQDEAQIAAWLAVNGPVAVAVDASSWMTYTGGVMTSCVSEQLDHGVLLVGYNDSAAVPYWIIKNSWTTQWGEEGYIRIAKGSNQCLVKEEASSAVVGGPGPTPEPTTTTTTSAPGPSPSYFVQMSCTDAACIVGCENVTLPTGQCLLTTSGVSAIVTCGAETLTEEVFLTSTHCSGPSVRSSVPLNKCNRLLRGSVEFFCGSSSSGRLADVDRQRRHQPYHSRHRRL
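15 min RT preincubation of 1.5 nM cruzain with compound, then 2 uM Z-FR-AMC added; kinetic AMC fluorescence, 60 s delta. Triton X-100 0.01%, pH 5.5.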
2A StopGo – High Throughput Screening for Foot and Mouth Disease Virus Antivirals | human cells with a luciferase reporter of 2A StopGo recoding; control for the full effect not named in the record | Potency, µM (top dose mostly 57.9 µM), for the others: top-dose signal change, negative = less light | hit rate 1.2% among 410,000 | AID 1159524, 2015; active = well fitted falling curve with a large enough effect; inconclusive = small, poorly fitted or top-dose-only effect; inactive = no such curve, though single readings can be large or run the other way; tested in HEK293T cells; further: on the % scale 0 is the no-effect control and ±100 the full control effect; nearly all actives have a fitted effect of over 45% in size; luciferase light after 4 h
SARS PLP yeast – qHTS of Yeast-based Assay for SARS-CoV PLP | S. cerevisiae expressing SARS-CoV PLpro, growth rescue; control for the full effect not named in the record | Potency, µM (top dose mostly 32.9 µM), without a hit: top-dose activity, positive = growth rescue | AID 485353, 2010 | hit rate 0.19% among 330,000; active means well fitted rising curve with a large enough effect; inconclusive means small, poorly fitted or top-dose-only effect; inactive means no such curve, though single readings can be large or run the other way; further: 0% is about no effect; nearly all actives have a fitted effect of over 55% in size; growth read by luminescence after 48 h
NS1 function inh – qHTS Assay for Inhibitors of Influenza NS1 Protein Function; S. cerevisiae slowed by influenza A NS1, growth recovery by OD600; Potency, µM (top dose mostly 46.1 µM), without a hit: top-dose activity, positive = more growth; hit rate 0.4% among 270,000; active means well fitted rising curve with a large enough effect; inconclusive means small, poorly fitted or top-dose-only effect; inactive means no such curve, though single readings can be large or run the other way; further: nearly all actives have a fitted effect of over 50% in size
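Compounds were scored for reversing the slow growth caused by influenza A NS1 in S. cerevisiae, measured by optical density at 600 nm. Assay medium contained 2% galactose at pH 6.0; NS1-free yeast of the same strain were the positive control.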
Cruzain noTriton – qHTS Assay for Promiscuous and Specific Inhibitors of Cruzain (without detergent) | hit rate 2.3% among 200,000 | purified cruzain, Z-FR-AMC fluorescence, no detergent | Potency, µM, inactives show max response, negative = inhibition, hits mostly inhibitors | AID 1476, 2009;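 further: plate controls were enzyme without inhibitor for no effect and buffer without enzyme for full effect; nearly all actives have a fitted effect of over 40% in size; top concentration of the series not given in the record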
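Purified cruzain at 1.5 nM, pre-incubated 15 min with compound at room temperature in 100 mM sodium acetate pH 5.5, 5 mM DTT, 0.00005% Triton X-100. Reaction started with 2 uM Z-FR-AMC; AMC fluorescence increase over 60 s gives rate.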
Lassa entry inh – qHTS for Inhibitors of binding or entry into cells for Lassa Virus. Lassa virus pseudotype entry inhibition, cell reporter; control for the full effect not named in the record. Potency, µM (doses to about 37.9 µM), without a hit: top-dose activity change, negative = inhibition, actives largely listed as inhibitors. hit rate 1.2% among 300,000. AID 540256, 2011; active means well fitted inhibition curve with a large enough effect; inconclusive means small, poorly fitted or top-dose-only effect, or effect the other way; inactive means flat fitted curve, though single readings scatter; tested in HEK293 cells; further: on the % scale 0 is the no-effect control and ±100 the full control effect; nearly all actives have a fitted effect of over 50% in size; luciferase read-out
RE007 growth inh – qHTS Assay for Inhibitors of the HIV-1 protein Vpr | S. pombe RE007 Vpr strain, BacTiter-Glo ATP luminescence, 24 h; control for the full effect not named in the record | Potency, µM (titrated, usually from 92.2 µM), for the others: at the highest dose activity change, negative = less growth | hit rate 0.21% among 360,000 | AID 651644, 2012; active = well fitted falling curve with a large enough effect; inconclusive = small, poorly fitted or top-dose-only effect; inactive = no such curve, though single readings can be large or run the other way;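 further: on the % scale 0 is the no-effect control and ±100 the full control effect; nearly all actives have a fitted effect of over 50% in size; the assay follows cell death caused by Vpr and the record does not say whether a fall means rescue or toxicity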
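Fission yeast strain RE007, carrying one chromosomally integrated HIV-1 vpr copy, was seeded at OD 0.01 in PMG+AL medium with 23 nL pinned compound. After 24 h at 30 °C and 99% humidity, viability was read by BacTiter-Glo luminescence.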
MARV entry inh – qHTS for inhibitors of binding or entry into cells for Marburg Virus. hit rate 1.8% among 300,000. Potency, µM (doses to about 37.8 µM), without a hit: at the top dose activity change, negative = inhibition, usual class: inhibitors. Marburg virus pseudotyped entry inhibition, cell reporter; control for the full effect not named in the record; about a third of the inactives were read at about 46 µM; active = well fitted inhibition curve with a large enough effect; inconclusive = small, poorly fitted or top-dose-only effect, or effect the other way; inactive = flat fitted curve, though single readings scatter; tested in HEK293 cells; about a fifth of its hits are not listed in these tables; further: on the % scale 0 is the no-effect control and ±100 the full control effect; luciferase read-out
* marks the source's active call; other numbers are inactive results; u = inconclusive; x = not tested or not shown; & = joins results of further samples; [ ] = another dose, or the depositor's remark. Unless noted, the call rests on the fitted dose curve; in most records, active means well fitted curve in the direction sought with a large enough effect; inconclusive means small, poorly fitted or top-dose-only effect, or another doubt; inactive means no such curve, though single readings can be large; an effect the other way counts as inactive or inconclusive. Potency means the concentration at half of the fitted maximal effect.

cpd | SMILES | Cruzain inh Det | 2A StopGo | SARS PLP yeast | NS1 function inh | Cruzain noTriton | Lassa entry inh | RE007 growth inh | MARV entry inh
1 | Cc1cc(NC(=O)CSc2cn(CCNC(=O)c3ccccc3)c3ccccc23)no1 | -6.5% | 0% | 2% | 0% | -7% | x | -6% | 1%
2 | CN(C)C(=O)CSc1nnc(C23CC4CC(CC(C4)C2)C3)o1 | 3.0% | 66%[activator] | 3% | 1% | 11% | u | -4% | u
3 | O=C(N/N=C/c1cc([N+](=O)[O-])cc(Br)c1O)C12CC3CCC(CC(C3)C1)C2 | x | -21% | -1% | 2% | x | x | 5% | x
4 | Cc1ccc(OCC(=O)OCc2cc(=O)n3c(C)csc3n2)cc1 | -4.1% | 8% | x | x | -12% | -2%[46.1 µM] | x | x
5 | O=c1[nH]cnc(O)c1N=Nc1ccccc1 | x | 13% | -3% | -7% | x | 20%[46.1 µM] | 41% | 0%[46.1 µM]
6 | COc1ccc(Br)cc1-c1nc2c(c(=O)[nH]c(=O)n2Cc2ccccc2)n1C | x | -10% | -1% | 12% | x | u | 1% | -15%[46.1 µM]
7 | COc1ccccc1CNC(c1ccccc1)c1ccccc1 | x | -7% | 2% | -14% | x | x | 0% | x
8 | O=C(N1CCOCC1)C12CC3CC(C1)CC(n1cnc(Cl)n1)(C3)C2 | -0.4% | -23% | 0% | 1% | 9% | 24% | -14% | -2%
9 | Cc1nn(-c2ccccc2)c(Cl)c1/C=N/NC(=O)C1COc2ccccc2O1 (stereo not given) | -4.5% | x | -8% | 2% | -2% | -1% | x | -5%
10 | CN(Cc1ccc2c(c1)OCCO2)C(=O)CN1C(=O)NC2(CCCCC2)C1=O | x | -21% | 2% | 10% | x | x | -9% | x
11 | COc1ccc(C(C)=O)cc1CSCc1cc(C(C)=O)ccc1OC | x | -20% | -3% | -7% | x | u | 2% | -2%
12 | CCN1C(=O)c2ccccc2S(=O)(=O)c2ccc(C(=O)NCCCN(CC(C)C)CC(C)C)cc21 | x | 5% | 0% | -7% | x | 2% | -23% | u
13 | CCOc1ccc(CC(=O)NCCc2sc3nc(-c4ccc(OC)cc4)nn3c2C)cc1 | -5.0% | u | x | x | u | 1%[46.1 µM] | x | x
14 | O=C(COC(=O)CCN1C(=O)/C(=C\C=C\c2ccccc2)SC1=S)Nc1cc(F)ccc1F | x | u | -1% | 6% | x | u | -6% | u
15 | COc1ccccc1C(=O)COC(=O)c1cc(=O)[nH]c2ccccc12 | x | 11% | 0% | x | x | u | 2% | -1%[46.1 µM]
16 | NCCNc1ccc([N+](=O)[O-])c2cccnc12 | x | 3% | -1% | 4% | x | x | -13% | x
17 | Cc1cccc(-n2c3nc(=O)[nH]c(=O)c-3cc3cc([N+](=O)[O-])ccc32)c1 | -5.9% | 35µM* | 23% | 20% | 4% | u | 4% | u
18 | CC1(C)CC(=O)c2cc(OCC(=O)N3CCOCC3)ccc2O1 | -0.1% | 2% | -1% | 0% | -4% | 4% | 2% | u
19 | Cc1ccc(S(=O)(=O)N2CCN(C(=O)COc3ccc(C)nc3[N+](=O)[O-])CC2)c(C)c1 | x | u | -1% | x | x | -3% | 14% | -16%[46.1 µM]
20 | CN(C)S(=O)(=O)c1ccc(S(=O)(=O)NCc2ccc3c(c2)OCO3)cc1 | x | 4% | 1% | 10% | x | 18% | 1% | 8%
21 | O=C1CCC(C(=O)OCC(=O)c2c[nH]c3ccccc23)=NN1 | -2.6% | 16% | -1% | 1% | 4% | 0% | 3% | 0%
22 | Cc1ccc(-c2nc(NCc3ccc(F)cc3)n(S(C)(=O)=O)n2)cc1 | x | 20% | 0% | -1% | x | 0% | -20% | u
23 | COc1ccc(C(=O)Nc2nnc(S(=O)(=O)N(C)Cc3ccc(F)cc3)s2)cc1OC | x | -14% | 1% | -9% | x | -1%[46.1 µM] | -15% | 17%[46.1 µM]
24 | COc1ccc(NC(=O)CN2CCN(C3c4ccccc4-c4ccccc43)CC2)c(OC)c1 | -2.6% | u | -7% | -35% | 14% | -20% | 2% | -11%

The listing continues:
cpd	canonical_smiles	Cruzain inh Det	2A StopGo	SARS PLP yeast	NS1 function inh	Cruzain noTriton	Lassa entry inh	RE007 growth inh	MARV entry inh
25	COc1ccc(-n2c(SCC(N)=O)nc3nc4c(cc3c2=O)COC(C)(C)C4)cc1	0.2%	-7%	6%	4%	1%	1%	12%	1%
26	COc1ccc(Nc2nc(-c3cccnc3)cs2)c(OC)c1	x	41%[activator]	-22%	-62%	x	7%	-10%	-2%
27	O=C(O)C1CC2CCC1CC2 (stereo not given)	x	-6%	x	x	x	15%	1%	u
28	CCOC(=O)Nc1oc2ccccc2c(=O)c1C	0.2%	-5%	-21%	-1%	5%	-2%	13%	-20%
29	Cc1ccc(S(=O)(=O)N2CCCC(C(=O)NCc3ccc4c(c3)OCO4)C2)cc1 (stereo not given)	x	-9%	0%	-2%	x	-1%	-2%	-20%
30	COc1cc(C2Sc3ccccc3NC3=C2C(=O)OC3)cc(OC)c1OC (stereo not given)	-2.1%	1%	3%	-8%	3%	-24%	-10%	u
31	COc1ccc(NC(=O)CSc2nc(-c3cccs3)cc(C(F)(F)F)n2)cc1Cl	-3.1%	u	x	x	-12%	u	x	u
32	COc1cc(/C=N/n2cnnc2)ccc1OC(=O)c1ccncc1	-2.3%	1%	-1%	-16%	-4%	u	7%	-2%
33	CC1CCN(c2nc3ccccc3nc2N2CCC(C)CC2)CC1	7.5%	x	x	10%	-7%	x	x	0%
34	O=C(c1ccc(C(F)(F)F)cc1)N1CCC(=O)N([C@H](COCc2ccc(C(F)(F)F)cc2)Cc2ccccc2)CC1	-0.7%	0%	x	x	u	x	3%	x
35	CCOc1ccc(S(=O)(=O)n2nnc3ccccc32)cc1C(C)C	1.8%	x	10%	-8%	3%	x	x	0%
36	NC(CP(=O)(O)O)C(=O)O (stereo not given)	-3.6%	9%	x	-7%	4%	14%	x	u

Reprinted from the part before: 2 compounds; new compounds follow.
cpd	canonical_smiles	Cruzain inh Det	2A StopGo	SARS PLP yeast	NS1 function inh	Cruzain noTriton	Lassa entry inh	RE007 growth inh	MARV entry inh
35	CCOc1ccc(S(=O)(=O)n2nnc3ccccc32)cc1C(C)C	1.8%	x	10%	-8%	3%	x	x	0%
36	NC(CP(=O)(O)O)C(=O)O (stereo not given)	-3.6%	9%	x	-7%	4%	14%	x	u
37	COc1cccc(C(=O)C2CN(c3ccccc3)CC2c2ccc(Cl)cc2)c1 (stereo not given)	1.8%	-2%	0%	-3%	u	-28%	-8%	-28%
38	Cc1ccc2oc3c(c(=O)c2c1)C(c1ccc(O)cc1)N(Cc1ccc2c(c1)OCO2)C3=O (stereo not given)	-0.3%	18%	x	x	3%	8%[46.1 µM]	x	6%[46.1 µM]
39	CCOC(=O)C1=C(COc2ccccc2)NC(=O)NC1c1ccc(Br)cc1 (stereo not given)	x	-23%	-6%	10%	x	x	11%	x
40	CN(C)Cc1ccccc1Sc1ccc(Br)cc1	0.9%	-13%	19%	6%	-3%	7%	3%	-15%
41	CCc1ccc(-c2cc(C)no2)cc1S(=O)(=O)N1CCN(c2ccc(F)cc2)CC1	x	u	2%	13%	x	x	1%	x
42	Cc1ccccc1NC(=O)CSc1nnc(-c2ccccc2)n1-c1ccccc1	3.8%	-15%	-8%	24%	-4%	u	-4%	u
43	Cc1cc(=O)oc(C)c1C(=O)Nc1cccnc1Cl	x	-9%	-1%	3%	x	x	9%	x
44	N#C/C(=C1\CCCN1)c1ccc2ccccc2n1	-1.2%	-13%	-2%	1%	-13%	-3%	-1%	13%
45	Cc1ccc(Cl)cc1NC(=O)C(Cc1ccccc1)NS(=O)(=O)c1cccc2nsnc12 (stereo not given)	-4.3%	11%	x	x	25µM*	0%[46.1 µM]	x	0%[46.1 µM]
46	O=C(CCl)Nc1c[nH]c(=O)[nH]c1=O	x	u	-2%	1%	x	u	-1%	u
47	CCN(CCn1cccn1)C(=O)CC1C(=O)NCCN1CC1CCCCC1 (stereo not given)	x	-5%	-1%	1%	x	2%	-23%	13%[46.1 µM]
48	Cc1ccc(OCC(=O)N2CCC(N3CCCCCC3)CC2)cc1	-1.1%	-1%	-2%	-5%	12%	18%	23%	10%&10%
49	CN(C)S(=O)(=O)N1CCN(C(=O)c2ccc3c(c2)OCO3)CC1	x	-4%	-2%	18%	x	13%	11%	3%[46.1 µM]
50	Cc1cnc(NC(=O)c2ccco2)s1	-2.0%	1%	4%	-35%	-3%	-19%	-3%	u
51	C=CCC1=C/C(=C\c2c(N)n3nc(CC(=O)N4CCCC4)sc3nc2=O)C=C(OC)C1=O	x	-6%	2%	29%	x	x	25%	x
52	CCCCOCCCN1C(C)=CC(=C2C(=O)NC(=S)NC2=O)C=C1C	x	-8%	0%	1%	x	x	10%	x
53	CC(C)c1ccc(-c2nc(N3CCCCC3)[nH]c(=O)c2C#N)cc1	-1.8%	-2%	-15%	-1%	u	u	10%	19%
